Vif TR-FRET: inhibitors of Vif binding to APOBEC3G peptide, primary screen, biochemical, TR-FRET, GST-Vif 1-94, biotin-A3G peptide, dose response retest (AID 1117319); Virion infectivity factor (Human immunodeficiency virus type 1 group M subtype B (isolate …; TR-FRET GST-Vif / biotin-A3G peptide binding; higher % means a stronger effect; test concentration not given here; strong numbers were not always called active; one-dose inhibition, %; IC50 in µM for titrated hits; hit rate 0.57% among 260,000;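 active = above the screen mean plus three standard deviations and confirmed in dose response; inconclusive = results disagree or hit not tested in dose response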;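 note: Vif residues 1-94 fused to GST binding biotinylated APOBEC3G peptide 110-148; 0% = full assay without inhibitor and 100% = GST in place of GST-Vif; retest series ran down from 100 µM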
RanGTP-Impb inh: inhibitors of RanGTP-importin-beta interaction, primary screen, biochemical, FRET, CFP-Ran, YFP-importin-beta, homogeneous; Ran GTPase (GTP-bound) - importin-beta complex; cell-free CFP-Ran/YFP-importin-beta FRET ratio; inhibition, % (no concentration beside the values); hit rate 1.1% among 300,000;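 active = most replicates above 15%; inconclusive = exactly half above 15%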;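 note: 0% = DMSO wells and 100% = Ran loaded with GDP instead of GTP; wells of about 40 µL received 100 nL stock; the first replicate is given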
Calb FLC: C. albicans growth inhibition with fluconazole, primary screen, CaCi-2 strain, Alamar Blue fluorescence; C. albicans CaCi-2 (fluconazole-resistant clinical isolate) + fluconazole, 48 h; hit rate 0.57% among 300,000; AID 1979, 2009; growth inhibition, % (test concentration not listed);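 active = most replicates above 75%; inconclusive = exactly half above 75%; inactive = most below 75%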;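 note: all wells also contain fluconazole at 8 µg/ml as a sub-toxic cotreatment; 0% = median of DMSO wells and 100% = median of geldanamycin control wells; wells of about 8 µL received 7.5 nL stock; the first replicate is given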
A1 inh: caspase 3/7 activation in MEF A1-2A-BIM cells, primary screen, A1 inhibitor project, cell-based, luminescence, HTS. Caspase-Glo 3/7 luminescence, 3 h; percent of clofoctol response, vehicle zero. AID 2462, 2010. hit rate 0.066% among 330,000. caspase activation, % (test concentration not listed);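 active = over half of replicate activation scores above 10%, or exactly half above 10 with the replicate mean above 10; inconclusive = replicate mean below 10 yet half the replicates above 10; inactive = over half of replicates below 10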;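 note: wells of about 30 µL received 50 nL stock; many hits fall short of the cut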
Beta cell apopt: inhibitors of cytokine-induced beta cell apoptosis, primary screen, luminescence | hit rate 0.8% among 300,000 | INS-1E cytokine-induced death, ATP luminescence, 48 h; percent of positive-control rescue, neutral wells zero | protection from apoptosis, % (concentration not given with the values);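 active = all replicates at 75% or more, or half of them and the mean; inconclusive = half reach 75% but not the mean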;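 note: 0% = cytokine-treated negative control wells and 100% = positive control rescue; higher means more ATP so stronger rescue from cytokine killing; wells of about 40 µL received 100 nL stock; the first replicate is given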
AF4-AF9 inh: inhibitors of AF4 peptide binding to AF9, primary screen, biochemical, AlphaScreen, biotin-AF4 peptide, FLAG-AF9, single point | inhibition, % at 10 µM | hit rate 0.47% among 350,000 | AID 651704, 2012 | Protein AF-9 (Homo sapiens), P42568;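 active = every replicate reaching a set inhibition limit, whatever the replicate mean, cut at about 25% in these data; inconclusive = mean inhibition reaches that limit but some replicates miss it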;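 note: 0% = plate neutral control median and 100% = total signal loss; the record names both 10 and 1 µM as test concentration; the first replicate is given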
Target sequence (P42568 whole entry, looked up): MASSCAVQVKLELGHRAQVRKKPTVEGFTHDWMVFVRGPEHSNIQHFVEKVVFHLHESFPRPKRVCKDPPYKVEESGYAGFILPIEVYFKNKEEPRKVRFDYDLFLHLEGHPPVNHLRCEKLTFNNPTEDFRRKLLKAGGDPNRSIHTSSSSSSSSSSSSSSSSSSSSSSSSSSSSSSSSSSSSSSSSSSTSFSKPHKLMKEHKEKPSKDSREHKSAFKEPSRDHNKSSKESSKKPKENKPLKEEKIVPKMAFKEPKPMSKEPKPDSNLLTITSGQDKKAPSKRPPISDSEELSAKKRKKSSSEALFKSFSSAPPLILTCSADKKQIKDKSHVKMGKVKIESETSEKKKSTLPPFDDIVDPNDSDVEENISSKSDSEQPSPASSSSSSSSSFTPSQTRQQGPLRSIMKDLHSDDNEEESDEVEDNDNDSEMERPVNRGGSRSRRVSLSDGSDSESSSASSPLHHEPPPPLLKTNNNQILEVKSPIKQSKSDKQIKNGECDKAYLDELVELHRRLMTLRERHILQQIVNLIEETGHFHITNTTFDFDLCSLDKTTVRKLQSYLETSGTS
T cruzi inh: inhibitors of intracellular T. cruzi growth, primary screen, luminescence, NIH3T3 host cells; hit rate 1.4% among 300,000; T. cruzi beta-gal in NIH3T3, 90 h; inhibition, % (concentration not given with the values);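 active = mean inhibition across valid replicates above about 55%, limit read from the data; inconclusive = mean below that limit but half or more replicates reach it; inactive = mean below it, under half of replicates reach it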;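 note: signal also drops with host cell toxicity which is not excluded here; 0% = plate median of DMSO wells and 100% = zero luminescence signal; higher percent means less beta-gal luminescence so fewer parasites; stock transfer was 50 nL into about 50 µL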
rRNA inh HTS: reduced GFP signal of wild-type E. coli, primary screen, bacterial rRNA inhibitor project, GFP/RFP fluorescence, OD600, single point; hit rate 1.6% among 350,000; GFP signal change (wild-type ribosome), % (concentration not given with the values); E. coli WT GFP vs humanized-ribosome RFP mutants, 24 h; hits give low values; DMSO median 0, no signal -100;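 active = significant combined selectivity score with lowered wild-type GFP, culture density cut under 30%, mutant RFP and density less affected; inactive = any of these conditions unmet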; note: one replicate is shown; some compounds called inactive have numbers as strong as hits
rRNA inh HTS OD600: second read-out of rRNA inh HTS, no call of its own (marks repeat the call); OD600 change, %; measured here: OD600 growth;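 optical density of the mix in the first replicate; 0 = DMSO median and -100 = no signal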
rRNA inh HTS RFP: also measured in rRNA inh HTS; calls as there; RFP signal change, %; measured here: RFP humanized mutant strains;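 first replicate; 0 = DMSO median and -100 = no signal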
* = called active by the depositor; ? = inconclusive; . = no result given.

SMILES | Vif TR-FRET | RanGTP-Impb inh | Calb FLC | A1 inh | Beta cell apopt | AF4-AF9 inh | T cruzi inh | rRNA inh HTS | rRNA inh HTS OD600 | rRNA inh HTS RFP
CC1(C)CC(=O)C2=C(C1)N=C1SCCC(=O)N1C2c1ccc(C(F)(F)F)cc1 (stereo unspecified) | 11% | -0.4 | 7 | 0.4 | 1 | . | 5 | . | . | .
Cc1[nH]n(-c2ccccc2)c(=O)c1N=Nc1ccc2c(c1)OCCO2 | 4% | -3.1 | -2 | -0.6 | 4 | 1.5 | 2 | 4 | 3 | -2.4
O=C(c1ccc([N+](=O)[O-])cc1[N+](=O)[O-])N1CCN(C(=O)C2CCCO2)CC1 (stereo unspecified) | 27% | . | . | 0.9 | -7 | -3.1 | . | 0 | 9 | -5.2
CNC(=S)N1CCN(CCNC2=CC(=O)CC(C)(C)C2)CC1 | -1% | 0.7 | 1 | 0.2 | 5 | -1.1 | -4 | 6 | -1 | -0.6
CN(C(=O)CC(NC(=O)c1ccccc1Cl)c1ccccc1)c1ccccc1 (stereo unspecified) | . | 2.7 | 1 | 1.4 | 3 | 2.1 | 6 | 4 | 1 | 2.7
CC(C)(C)C(=O)CSc1nnc(-c2cccs2)n1CC1CCCO1 (stereo unspecified) | 14% | -0.8 | -1 | -0.2 | 1 | . | 13 | . | . | .
COc1ccccc1OC(=O)CN1C(=O)c2ccccc2C1=O | -2% | -0.8 | -7 | 0.9 | -5 | . | -12 | . | . | .
Cc1c(C(=O)Nc2ccc(Br)cc2)cnn1C | -6% | 4.4 | -15 | -0.8 | 1 | . | -3 | . | . | .
Cc1cccc2c1OCC/C2=N\NC(=O)COc1ccccc1Cl | 2% | -2.1 | 1 | -8.1 | 9 | . | 0 | . | . | .
COCCNc1nc(SCc2ccccc2)nc2sc3c(c12)CCC3 | -6% | -2.4 | -2 | 0.7 | 1 | . | 12 | . | . | .
CCCCNC(=O)CCCCCn1c(=O)[nH]c2cc(C(=O)OC)ccc2c1=O | 2% | -2.3 | -8 | -0.7 | -2 | -3.2 | 6 | 6 | -3 | 2.0
COc1ccc(CCNC(=O)CCC2COc3ccccc3O2)cc1OC (stereo unspecified) | 1% | 1.4 | 55 | -0.2 | -6 | . | -9 | . | . | .
CCOC(=O)C1=C(CS(=O)(=O)c2ccccc2)NC(=O)NC1c1ccc(OC)c(OC)c1 (stereo unspecified) | -2% | -3.2 | 4 | 0.6 | 3 | 5.5 | 0 | 0 | -1 | 0.9
COc1ccc(CN2C(=O)c3cccnc3C2=O)cc1S(=O)(=O)NC1CCCCC1 | . | 2.1 | 1 | 0.3 | 2 | 1.6 | 1 | 3 | 4 | -5.5
Cc1cc(-c2ccccc2)nc(N2CCC(C(=O)NCc3ccccc3Cl)CC2)n1 | -7% | 1.9 | 0 | . | . | . | -14 | . | . | .
CC(=O)OCCCN1C(=O)c2cccc3cc(Br)cc(c23)C1=O | . | 4.3 | 25 | -0.2 | 7 | . | 2 | . | . | .
CC1CC(=O)N(CC(=O)NCc2ccccc2)c2ccccc2S1(=O)=O (stereo unspecified) | -2% | -4.6 | -9 | 0.3 | 0 | -14 | -8 | 6 | 5 | 3.5
CN(/N=C\c1ccc(O)c(O)c1)c1nc(-c2ccccc2)cc(-c2ccccc2)n1 | ? | -1.2 | ? | 2.2 | -3 | . | 6 | . | . | .
COc1ccc(OCC2c3cc(OC)c(OC)cc3CCN2C(=O)C(C)C)cc1 (stereo unspecified) | -4% | 1.8 | -3 | . | . | -3.7 | 5 | -24* | -1.7* | -1.0*
CCN1C(=O)NC(c2ccc(Cl)cc2)C2=C1CCCC2=O (stereo unspecified) | -4% | 0.1 | -4 | 1.9 | -4 | -0.6 | -8 | 7 | 7 | -2.3
CC(NC1c2ccccc2-c2ccccc21)c1ccccc1 (stereo unspecified) | . | -1.3 | -3 | -0.7 | -6 | -3.1 | 1 | 0 | -3 | 3.6
Cc1ccc(S(=O)(=O)N(C)CC(=O)OCC(=O)N2CC(=O)Nc3ccccc32)cc1 | . | -1.3 | 1 | 0.4 | 1 | 1.2 | -7 | 3 | -1 | 0.2
CC1=C(C#N)C(Nc2ccc(Cl)cn2)(C(F)(F)F)C(=O)N1 (stereo unspecified) | -1% | ? | 5 | -0.1 | -5 | . | 0 | . | . | .
CNc1nc2c(N)ncnc2n1[C@H]1O[C@@H](CO)[C@H](O)[C@@H]1O | -4% | 1.7 | -5 | 0.2 | -4 | -0.8 | -15 | 6 | 6 | 4.3
Cc1ccc(/C=N/n2c(C3CCCCC3)n[nH]c2=S)cc1 | 1% | ? | 40 | -0.3 | 3 | -1.7 | 0 | -8 | -8 | 2.1
Cc1ccc(CS(=O)Cc2ccc(C(=O)N3CCN(c4ccccc4)CC3)o2)cc1 (stereo unspecified) | . | 0.9 | -3 | 0.4 | -4 | 3.3 | 56* | -11 | -18 | 2.8
NNC(=O)c1ccc2[nH]c3c(c2c1)CCCC3 | 21% | -2.3 | -23 | -1.0 | -6 | -2.1 | 7 | 0 | -10 | 3.8
Cc1cccc(N2C(=O)CC(Sc3nc(C)c4c(n3)CCCC4)C2=O)c1 (stereo unspecified) | -2% | 9.2 | -2 | -1.0 | -9 | . | -1 | . | . | .
C/C(=N\O)C1CCCCC1 | -16% | 5.0 | -1 | 0.2 | -2 | . | -9 | . | . | .
CCCc1nc(-c2cc3ccc(C)cc3[nH]c2=O)no1 | -3% | 3.2 | -6 | 1.1 | 6 | . | -1 | . | . | .
CC1(C)c2[nH]c3ccccc3c2C[C@@H]2C(=O)N(Cc3ccco3)C(=O)N21 | . | 0.1 | 13 | -0.7 | -1 | 5.9 | -2 | -17 | -19 | 16
COc1ccc(/C=C/C(=O)N2CCN(c3ccccn3)CC2)cc1 | . | 1.4 | -4 | -0.3 | -5 | -1.8 | -4 | -23* | -16* | -4.9*
COC(=O)CSCC(=O)Nc1nnc(-c2cccc(C)c2)s1 | 1% | . | . | -0.8 | -6 | -0.2 | -8 | -1 | 12 | -0.9
CCN(C(=S)NC(=O)c1ccccc1Br)C1CCCCC1 | 0% | -2.2 | 8 | 0.2 | 1 | . | -23 | . | . | .
COC(=O)c1c(NC(C)=O)sc(C(=O)Nc2ccccc2)c1C | -3% | 2.9 | 3 | -0.1 | 2 | -2.5 | 0 | . | . | .
Clc1ccc(CSc2cc3c(nn2)-c2ccccc2CC3)cc1Cl | -6% | 1.1 | 8 | 0.0 | 1 | . | 28 | . | . | .
Cc1c(NC2=NC3(CCCCC3)Cc3ccccc32)c(=O)n(-c2ccccc2)n1C | 9% | ? | -8 | 0.4 | 1 | . | 12 | . | . | .
Cc1ccc(-n2c(SCC(=O)N(C)C3CCS(=O)(=O)C3)nc3ccccc3c2=O)cc1 (stereo unspecified) | -4% | 1.1 | -6 | -0.1 | . | 0.4 | 0 | 10 | 4 | -1.0
Cc1ccc(-n2nc3c(c2NC(=O)CC(C)C)CS(=O)(=O)C3)cc1 | -5% | 3.3 | 0 | -0.2 | -3 | -1.8 | 0 | 6 | 15 | 0.7
CCCc1cc(=O)[nH]c(SCC(=O)Nc2cccc(S(=O)(=O)N3CCOCC3)c2)n1 | 11% | . | . | 0.2 | 4 | -1.5 | . | 6 | 3 | 2.9
COc1cccc(N/C(SC)=C(/C#N)C(=O)NCc2cccs2)c1 | -5% | 1.0 | -2 | 0.7 | -1 | 1.4 | 9 | -20 | -23 | 8.2
O=C(NCc1ccc(Cl)cc1)C1CCCN1C(=O)Nc1ccccc1 (stereo unspecified) | . | ? | -7 | -0.1 | 2 | -6.9 | 0 | 5 | 16 | -2.2
Cc1cc(C)cc(C(=O)OCC(=O)NCC(F)(F)F)c1 | . | -0.5 | -1 | 0.4 | -5 | -100 | -11 | 4 | -4 | 3.2
Cc1ccc(NC(=O)CCC(=O)OC(C)C(=O)c2ccccc2)cc1 (stereo unspecified) | -7% | ? | -4 | 1.0 | -3 | -3.0 | -3 | 10 | 0 | -2.1
CCOC(=O)C(C)Sc1nc(-c2ccco2)cc(C(F)(F)F)c1C#N (stereo unspecified) | 16% | 2.9 | 30 | -1.9 | 0 | . | 4 | . | . | .

Quoted from the listing:
CCN(C(=S)NC(=O)c1ccccc1Br)C1CCCCC1 in A1 inh → 0.2
Cc1c(NC2=NC3(CCCCC3)Cc3ccccc32)c(=O)n(-c2ccccc2)n1C in Beta cell apopt → 1
COC(=O)CSCC(=O)Nc1nnc(-c2cccc(C)c2)s1 in A1 inh → -0.8

(list continues)
SMILES | Vif TR-FRET | RanGTP-Impb inh | Calb FLC | A1 inh | Beta cell apopt | AF4-AF9 inh | T cruzi inh | rRNA inh HTS | rRNA inh HTS OD600 | rRNA inh HTS RFP
C=CCn1c(C(CC(C)C)CC(C)O)n[nH]c1=S (stereo unspecified) | -5% | 2.8 | 2 | 0.2 | -1 | -3.3 | -22 | -3 | 0 | -2.4
COc1ccc(NC(=O)CN(c2ccccc2)S(=O)(=O)N(C)C)cc1OC | 18% | ? | -2 | -0.4 | -9 | . | 30 | . | . | .
Cc1ccc(C(=O)CSc2nnc(-c3cccs3)n2C)o1 | 15% | ? | -1 | -0.4 | . | -11 | -5 | 2 | 2 | -1.1
COc1cccc(CNCC2CCCO2)c1 (stereo unspecified) | . | -2.7 | -7 | 0.2 | -6 | -2.4 | 5 | 11 | 5 | -1.4
CCOC(=O)N1CCN(C(=O)C2CCN(S(=O)(=O)c3ccccc3)CC2)CC1 | 5% | 3.7 | -6 | -0.3 | -7 | . | -5 | . | . | .
COC(=O)[C@@H]1C[C@@]2(O)[C@@H](O)[C@@H](O)[C@@H](O)C[C@H]2N1Cc1ccc(C)s1 | 0% | 4.1 | 5 | -0.8 | -5 | -0.1 | -19 | 0 | 19 | 9.5
CCOC(=O)N/N=C1\CC(C)CC(C)(C)C1 (stereo unspecified) | 1% | 1.3 | 3 | -0.7 | 0 | 2.0 | 3 | 2 | 6 | -1.5
O=C(COc1ccc([N+](=O)[O-])cc1)Nc1ccc2[nH]c(=O)[nH]c2c1 | -3% | -2.6 | -5 | -1.7 | . | -1.4 | -15 | 5 | 5 | 1.0

Only part of the results is shown (hit frequency here may not be typical).
